# HSV augment – increases HSV replication in cells. HSV replication augmentation in cells, fold increase. 0.005% of 220,000 active. maximum fold increase. AID 1956;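 active = peak rise of 1.5-fold or more in the series; tested in PC3 cells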;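 also: first round at 10 µM; read as green reporter fluorescence; hits show the peak of a series up to 25 µM; 1 = signal of infected wells without compound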
# RGS16-Gao HTS – RGS16-Galphao interaction regulator (human); O15492+P09471; AID 1441; 0.38% of 220,000 active; bead-based flow cytometry RGS16-Galphao binding, fluorescence; actives lie on both sides; binding response (% of control), % at 10 µM;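 active = below 25% or above 175%, edge rows of some plates excepted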;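 also: Galphao activated by GDP with aluminum fluoride before binding; 100% = wells without compound and 0% = beads without RGS; some results beyond the cut were filed as inactive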
# Target sequence (O15492 whole entry, looked up): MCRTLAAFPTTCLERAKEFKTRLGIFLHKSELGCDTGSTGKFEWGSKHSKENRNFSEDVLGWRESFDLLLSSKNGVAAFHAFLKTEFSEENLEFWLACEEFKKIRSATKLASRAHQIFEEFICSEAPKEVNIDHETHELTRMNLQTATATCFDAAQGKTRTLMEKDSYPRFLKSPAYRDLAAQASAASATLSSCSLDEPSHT
# Target sequence (P09471 whole entry, looked up): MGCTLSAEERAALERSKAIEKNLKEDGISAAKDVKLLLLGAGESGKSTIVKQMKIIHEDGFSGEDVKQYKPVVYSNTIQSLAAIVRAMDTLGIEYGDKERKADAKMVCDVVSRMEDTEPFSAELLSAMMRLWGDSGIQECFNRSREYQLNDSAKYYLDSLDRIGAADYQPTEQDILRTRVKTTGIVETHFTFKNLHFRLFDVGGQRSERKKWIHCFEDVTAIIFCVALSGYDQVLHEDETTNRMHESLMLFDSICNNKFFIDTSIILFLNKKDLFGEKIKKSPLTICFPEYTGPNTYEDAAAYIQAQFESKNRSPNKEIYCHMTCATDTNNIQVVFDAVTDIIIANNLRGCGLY
# PKD1 inh – PKD1 (human) kinase inhibition; Q15139; 0.056% of 200,000 active; inhibition, %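 (about 10 µM by stock and volumes)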; AID 797; PKD1 kinase fluorescence polarization assay;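 active = inhibition of 50% or more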;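 also: controls were vehicle for no effect and a reference inhibitor for full effect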
# GALR2 agonist – activates the human galanin receptor 2; O43603; GALR2-expressing cells, agonist activation read-out; activation, %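 (tested at 5 µM)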; 0.48% of 140,000 active;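 active = above mean plus 3 SD of all compounds, about 5% in these data, not always enough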;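 also: 0% = vehicle buffer wells and 100% = reference agonist at full effect; tested in CHO reporter cells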
# INS promoter inh – TRM-6 insulin promoter activity inhibition; TRM-6 cells (human fetal islet line), insulin promoter-eGFP reporter, imaging; reporter expression induced with tamoxifen; inhibition, % at 2 µM; 0.9% of 130,000 active;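 active = inhibition above the mean plus 3 SD, with well images judged a real hit on visual review, cut at about 60% in these data, passing the limit was not always enough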
# INS promoter inh cell count – further read-out of INS promoter inh, marked with its call; normalized cell count, %; measured here: cell count, toxicity; reference of the scale not given here;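 cells exposed to compound for 48 h; stained nuclei by imaging scaled within each plate; lower means fewer cells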
# HSV augment primary fold – further read-out of HSV augment, marked with its call; fold increase; compound at 10 µM; measured here: primary screen fold increase 10 uM; tested in PC3 cells;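 GFP signal in the first replicate; 1 = infected wells without compound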
# Numbers without * were called inactive; i = inactive; x = not tested or not shown; & = joins results of further samples.
# Codes – A = HSV augment; B = HSV augment primary fold; C = RGS16-Gao HTS; D = PKD1 inh; E = GALR2 agonist; F = INS promoter inh; G = INS promoter inh cell count
O=S(=O)(NCc1ccco1)c1cnc(Cl)c(Br)c1
  A: i	B: 1.1	C: 117	D: 7	E: -1.4	F: -39	G: 77
O=[N+]([O-])c1cc(C(F)(F)F)ccc1NC1CCN(Cc2ccccc2)CC1
  A: i	B: 0.98	C: 105	D: x	E: x	F: x	G: x
C/C=C/C(=O)OCC(=O)Nc1cccc(F)c1
  A: i	B: 0.88	C: 96	D: -3	E: x	F: x	G: x
CC(C)OP(=O)(OC(C)C)C(Nc1ccccc1)c1ccccc1C(F)(F)F (centres undefined)
  A: i	B: 0.92	C: 106	D: 19	E: -0.2	F: 4	G: 59
O=C(CSc1nnnn1C1CCCC1)Nc1ccccc1F
  A: i	B: 0.97	C: 105	D: x	E: x	F: x	G: x
Cc1ccc(N(C)C(=O)n2cnc3ccccc32)cc1
  A: i	B: 1.1	C: 106	D: -5	E: x	F: x	G: x
COc1ccc(OC)c(NC(=S)N(CCc2c(C)[nH]c3ccccc23)Cc2cccs2)c1
  A: x	B: x	C: x	D: -6	E: -0.2	F: -33	G: 107
CCCCOC(=O)C(C#N)c1nc2ccccc2nc1N1CCN(Cc2ccc3c(c2)OCO3)CC1 (centres undefined)
  A: i	B: 0.88	C: 105	D: 13	E: -2.9	F: 9	G: 62
O=C(CCn1nnc2ccccc21)N1CCN(c2ccccc2)CC1
  A: x	B: x	C: x	D: 10	E: -1.6	F: x	G: x
COc1ccccc1NC(=O)Nc1ccc(N2CCOCC2)cc1
  A: i	B: 0.91	C: 87	D: -9	E: x	F: x	G: x

# (list continues)
# Codes – A = HSV augment; B = HSV augment primary fold; C = RGS16-Gao HTS; D = PKD1 inh; E = GALR2 agonist; F = INS promoter inh; G = INS promoter inh cell count
Nc1cc(Nc2ccc(Br)cc2)nc(N)n1
  A: i	B: 1.2	C: 104	D: x	E: x	F: x	G: x
O=C(CCc1nnc(CCCc2ccccc2)o1)NCCc1ccccc1
  A: i	B: 1.2	C: 103	D: -3	E: x	F: 19	G: 70
COc1ccc(C(=O)Nc2ccc3c(c2)nc(CN2CCCC2)n3C)cc1
  A: i	B: 1	C: 101	D: 6	E: x	F: x	G: x
C=CCN1C(=O)CN=C1Nc1cc(C)cc(C)c1
  A: i	B: 1	C: 98	D: 0	E: -2.5	F: x	G: x
Cc1ccc(C(=O)N2CCN(c3ccc([N+](=O)[O-])cc3-n3cccc3)CC2)cc1
  A: i	B: 0.93	C: 99	D: x	E: x	F: x	G: x
COc1cccc(-c2csc3nnc(SCC(=O)c4ccc(NC(C)=O)cc4)n23)c1
  A: i	B: 0.96	C: 105	D: -2	E: -0.6	F: 37	G: 98
CC12CC3(C)CC(C)(C1)CC(C(N)=O)(C2)C3
  A: i	B: 0.9	C: 103	D: -5	E: x	F: x	G: x
CCOC(=O)Nc1nc(-c2ccc(F)cc2F)cs1
  A: i	B: 0.93	C: 96	D: 4	E: -1.0	F: 33	G: 120
O=C(CCc1nc(-c2ccccn2)no1)NCc1ccc2c(c1)OCO2
  A: i	B: 0.98	C: 107	D: x	E: x	F: x	G: x
COc1ccc(OCC(=O)N2CCN(C(=O)COc3ccc(Br)cc3)CC2)cc1
  A: i	B: 1.1	C: 103	D: -6	E: -1.0	F: -1	G: 80

# New compounds follow
# Codes – A = HSV augment; B = HSV augment primary fold; C = RGS16-Gao HTS; D = PKD1 inh; E = GALR2 agonist; F = INS promoter inh; G = INS promoter inh cell count
c1csc(Cn2c(-c3cccs3)nc3ccccc32)c1
  A: i	B: 1.1	C: 99	D: 2	E: 0.4	F: 0	G: 82
O=C(COC(=O)c1ccco1)NCC1CCCO1 (centres undefined)
  A: i	B: 0.9	C: 96	D: 5	E: -1.2	F: 39	G: 116
Cc1onc(-c2ccccc2)c1C(=O)NC(C)C1CCCO1 (centres undefined)
  A: i	B: 1.1	C: 99	D: 0	E: -0.5	F: -31	G: 83
Cn1c2c(c(=O)n(C)c1=O)C(c1ccccc1Cl)CC(=O)N2 (centres undefined)
  A: i	B: 0.89	C: 111	D: 5	E: -1.6	F: x	G: x
COc1ccc(/C=C2\CCn3c2nc2cc(C(=O)O)ccc2c3=O)cc1O
  A: i	B: 1.2	C: 101	D: 6	E: 0.0	F: x	G: x
COc1ccc(C2/C=C\CN(S(=O)(=O)c3cccs3)CC(=O)N2Cc2ccc(F)cc2)cc1 (centres undefined)
  A: i	B: 0.95	C: 101	D: x	E: x	F: x	G: x
c1ccc(-c2nc3cc4ccccc4cc3[nH]2)nc1
  A: i	B: 0.7	C: 101	D: -2	E: 0.9	F: 66	G: 77
CCN(CC)C(=O)CSc1nc(O)c(Cc2ccccc2)c(=O)n1-c1ccccc1
  A: i	B: 0.99	C: 101	D: 3	E: -0.1	F: 29	G: 84
COc1ccc(C(CNC(=O)COc2ccccc2-c2ccccc2)N2CCOCC2)cc1 (centres undefined)
  A: i	B: 0.88	C: 105	D: 3	E: x	F: x	G: x
Cc1nnc(N(C)C(=O)c2ccccn2)s1
  A: x	B: x	C: 101	D: -3	E: -1.2	F: -17	G: 50

# (next part)
# Codes – A = HSV augment; B = HSV augment primary fold; C = RGS16-Gao HTS; D = PKD1 inh; E = GALR2 agonist; F = INS promoter inh; G = INS promoter inh cell count
Cn1c(=O)cc(SCC(=O)Nc2ccccn2)c2ccccc21
  A: i	B: 1.1	C: 104	D: -1	E: -2.5	F: x	G: x
C=CCc1cc(OC)ccc1OCC(O)CN1CCN(c2ccc(OC)cc2)CC1 (centres undefined)
  A: i	B: 1&1.1	C: 101&105	D: 6&3	E: -2.8	F: 0	G: 109
COc1ccc2c(=O)c3c(=O)n(-c4ccc(C)cc4)c(-c4ccccc4)nc3oc2c1
  A: i	B: 0.98	C: 102	D: x	E: x	F: x	G: x
CCCCNC(c1ccccc1)c1ccncc1 (centres undefined)
  A: i	B: 0.96	C: 24	D: 2	E: -3.1	F: -22	G: 103
Cc1ccc(N(C(=O)CCC(=O)Nc2nccs2)C(C(=O)NC(C)(C)C)c2ccc(O)cc2)cc1 (centres undefined)
  A: i	B: 0.86	C: 108	D: -2	E: x	F: x	G: x
CN(C)C(=O)CN(c1ccc2c(c1)OCO2)S(C)(=O)=O
  A: i	B: 0.99	C: 88	D: -6	E: -1.8	F: 71*	G: 74*
C=CCNc1nc(-c2cccs2)c(CC(=O)O)s1
  A: i	B: 1.1	C: 106	D: x	E: x	F: x	G: x
CNc1nccc(-c2ccc(Cl)cc2)c1C#N
  A: i	B: 0.87	C: 83	D: 2	E: x	F: 7	G: 106
C=CCC(CC=C)(NC(=O)c1ccccc1)c1ccccc1
  A: i	B: 0.96	C: 103	D: 6	E: -3.6	F: x	G: x
CCOC(=O)C1=C(C)N(c2ccccc2)C(=O)/C1=C\c1ccco1
  A: i	B: 0.93	C: 109	D: -6	E: 0.0	F: -10	G: 105
S=C(NC1CCCC1)N1CCN(c2ccc(Cl)cc2)CC1
  A: i	B: 0.93	C: 102	D: -1	E: x	F: 9	G: 107
COCCOC(=O)C1=C(C)N(c2ccccc2)C(=S)NC1c1ccccc1C(F)(F)F (centres undefined)
  A: i	B: 0.97	C: 100	D: -6	E: x	F: 7	G: 69
CCOC(=O)Cc1nnc(NC(=O)CSc2ccc(Cl)cc2)s1
  A: i	B: 1.1	C: 99	D: 2	E: 0.2	F: 28	G: 68

# Of the compounds above, 10 contain four or more nitrogen atoms:
# Codes – A = HSV augment; B = HSV augment primary fold; C = RGS16-Gao HTS; D = PKD1 inh; E = GALR2 agonist; F = INS promoter inh; G = INS promoter inh cell count
O=C(CSc1nnnn1C1CCCC1)Nc1ccccc1F
  A: i	B: 0.97	C: 105	D: x	E: x	F: x	G: x
CCCCOC(=O)C(C#N)c1nc2ccccc2nc1N1CCN(Cc2ccc3c(c2)OCO3)CC1 (centres undefined)
  A: i	B: 0.88	C: 105	D: 13	E: -2.9	F: 9	G: 62
O=C(CCn1nnc2ccccc21)N1CCN(c2ccccc2)CC1
  A: x	B: x	C: x	D: 10	E: -1.6	F: x	G: x
Nc1cc(Nc2ccc(Br)cc2)nc(N)n1
  A: i	B: 1.2	C: 104	D: x	E: x	F: x	G: x
COc1ccc(C(=O)Nc2ccc3c(c2)nc(CN2CCCC2)n3C)cc1
  A: i	B: 1	C: 101	D: 6	E: x	F: x	G: x
Cc1ccc(C(=O)N2CCN(c3ccc([N+](=O)[O-])cc3-n3cccc3)CC2)cc1
  A: i	B: 0.93	C: 99	D: x	E: x	F: x	G: x
COc1cccc(-c2csc3nnc(SCC(=O)c4ccc(NC(C)=O)cc4)n23)c1
  A: i	B: 0.96	C: 105	D: -2	E: -0.6	F: 37	G: 98
O=C(CCc1nc(-c2ccccn2)no1)NCc1ccc2c(c1)OCO2
  A: i	B: 0.98	C: 107	D: x	E: x	F: x	G: x
Cc1nnc(N(C)C(=O)c2ccccn2)s1
  A: x	B: x	C: 101	D: -3	E: -1.2	F: -17	G: 50
Cc1ccc(N(C(=O)CCC(=O)Nc2nccs2)C(C(=O)NC(C)(C)C)c2ccc(O)cc2)cc1 (centres undefined)
  A: i	B: 0.86	C: 108	D: -2	E: x	F: x	G: x
